Bioassay records (PubChem BioAssay)
MLL AF4-AF9 inh: inhibitors of human MLL-AF4/AF9 interaction; P42568; AlphaScreen, biotin-AF4 peptide binding to FLAG-AF9; inhibition, % at 10 µM; hit rate 0.47% among 350,000; AID 651704;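 active = every replicate reaching a set inhibition limit, whatever the replicate mean, cut at about 25% in these data; inconclusive = mean inhibition reaches that limit but some replicates miss it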;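 also: 0% = plate neutral control median and 100% = total signal loss; the record names both 10 and 1 µM as test concentration; the first replicate is given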
Target sequence (P42568 whole entry, looked up): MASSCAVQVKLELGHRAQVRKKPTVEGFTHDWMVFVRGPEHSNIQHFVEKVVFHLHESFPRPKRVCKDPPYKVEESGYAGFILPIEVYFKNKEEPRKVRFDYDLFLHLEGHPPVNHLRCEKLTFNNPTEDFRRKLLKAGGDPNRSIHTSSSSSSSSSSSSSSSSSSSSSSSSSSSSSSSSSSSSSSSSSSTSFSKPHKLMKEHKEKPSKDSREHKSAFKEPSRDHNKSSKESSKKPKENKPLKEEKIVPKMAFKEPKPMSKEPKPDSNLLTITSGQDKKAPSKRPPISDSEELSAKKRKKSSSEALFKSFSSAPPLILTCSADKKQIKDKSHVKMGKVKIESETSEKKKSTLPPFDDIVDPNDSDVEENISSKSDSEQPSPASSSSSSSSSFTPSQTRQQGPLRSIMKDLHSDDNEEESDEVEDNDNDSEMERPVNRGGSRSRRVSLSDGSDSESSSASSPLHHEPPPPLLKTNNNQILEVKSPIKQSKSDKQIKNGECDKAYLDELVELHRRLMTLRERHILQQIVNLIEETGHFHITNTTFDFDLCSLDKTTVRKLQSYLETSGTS
An asterisk follows results filed as active; u = inconclusive; & = joins results of further samples. Some of the compounds tested; count on the stated rates, not on these rows.

MLL AF4-AF9 inh	SMILES
-1.6	O=C([C@@H]1[C@@H](CO)[C@@H]2Cn3c(cccc3=O)[C@@H]2N1CC1CCCC1)N1CCOCC1
-2.5	O=S(=O)(NC[C@@H]1CC[C@H]2NC[C@H]2O1)c1ccccc1F
-6.1	C[C@H]1CN([C@@H](C)CO)C(=O)c2cc(NC(=O)CCC(F)(F)F)ccc2O[C@@H]1CN(C)S(=O)(=O)c1cn(C)cn1
0.0	C/C=C/c1cnc2c(c1)C(=O)N([C@H](C)CO)C[C@@H](C)[C@H](CN(C)Cc1ccccc1)O2
-8.8	C[C@H]1CN([C@@H](C)CO)C(=O)c2cc(C#CC3CCCCC3)cnc2O[C@@H]1CN(C)S(=O)(=O)c1ccc(F)cc1
-2.2	COc1cccc(NC(=O)N[C@H]2C=C[C@H](CC(=O)N3CCCCC3)O[C@H]2CO)c1
-3.3	CCC(=O)N1[C@H](CN(CC)C(=O)c2ccccc2)[C@@H](c2ccccc2)[C@@H]1CO
3.7	COCC(=O)Nc1ccc2c(c1)C(=O)N(C)C[C@@H](OC)[C@H](C)CN(Cc1ccccc1)[C@H](C)CO2
-0.7	C=CCN1CC(COCc2ccccc2)OCCS1(=O)=O (stereo not given)
-0.2	O=C(O)C(=Cc1ccc([N+](=O)[O-])cc1)c1ccccc1
0.3	O=C(C[C@@H]1CC[C@H]2[C@@H](COC[C@H](O)CN2CCc2ccccc2)O1)NCc1ccc(F)cc1
5.9	COc1ccc(NC(=O)N(C)C[C@@H]2OCc3ccccc3-c3c(n(C)c4ccccc34)C(=O)N([C@@H](C)CO)C[C@@H]2C)c(OC)c1
0.4	C[C@@H]1CN([C@@H](C)CO)C(=O)c2cc(NC(=O)Nc3ccc4c(c3)OCO4)ccc2O[C@H]1CN(C)C(=O)Nc1ccc2c(c1)OCO2
-5.3	CNC[C@@H]1OCCCC[C@@H](C)Oc2ccc(NC(=O)CCC(F)(F)F)cc2C(=O)N([C@@H](C)CO)C[C@@H]1C
-3.9	COc1ccc(CN(C)C[C@@H]2Oc3c(NC(=O)Nc4ccccc4)cccc3C(=O)N([C@@H](C)CO)C[C@H]2C)cc1
0.1	C[C@@H](NC(=O)C[C@@H]1CC[C@H](NC(=O)C2CC2)[C@@H](CO)O1)c1ccccc1
-0.2	O=C(c1cnccn1)N1CC[C@@H]2[C@H](CO)Nc3ccc(C#Cc4cccnc4)cc3[C@@H]21
7.7	COCC(=O)N1CCCCN2[C@H](CO)[C@@H](c3ccc(-c4ccc(OC)cc4)cc3)[C@H]2C1
-1.1	CNC[C@H]1Oc2c(NC(=O)Nc3ccccc3)cccc2C(=O)N([C@@H](C)CO)C[C@@H]1C
1.4	Cc1noc(C)c1NC(=O)Nc1cccc2c1O[C@@H](CN(C)Cc1ccc(C(=O)Nc3ccccc3N)cc1)[C@@H](C)CN([C@@H](C)CO)C2=O
-4.4	CN1CCCCN2[C@@H](CO)[C@H](c3ccc(Br)cc3)[C@@H]2C1
-3.4	Cn1nc(C(C)(C)C)cc1NC(=O)C1(C)CCN1C(=O)C1(c2ccccc2)CC1 (stereo not given)
-1.7	COc1ccc(CN(C)C[C@H]2Oc3ccc(NC(=O)CCC(F)(F)F)cc3CC(=O)N([C@H](C)CO)C[C@@H]2C)cc1
0.9	O=C(C[C@@H]1C[C@@H]2c3cc(NS(=O)(=O)c4ccc(F)cc4)ccc3O[C@@H]2[C@@H](CO)O1)NCCc1ccccc1
0.6	COc1ccc(CN(C)C[C@@H]2OCCCC[C@@H](C)Oc3ccc(NC(=O)CCC(F)(F)F)cc3C(=O)N([C@@H](C)CO)C[C@@H]2C)cc1
11.4	Cc1ccc(S(=O)(=O)N(C)C[C@H]2OCCCC[C@H](C)Oc3ccc(N(C)C)cc3C(=O)N([C@H](C)CO)C[C@@H]2C)cc1
1.2	Cc1ccc(S(=O)(=O)N2CCN(C(=O)CN3CCN(c4ccc(O)cc4)CC3)CC2)cc1
-32.1	CCCCCNC(=O)C(C1CC1)n1c(=O)c(-c2cc3ccccc3[nH]2)nc2ccccc21 (stereo not given)
-2.3	CO[C@@H]1CN(C)C(=O)c2cc(NS(=O)(=O)c3ccc(C)cc3)ccc2OC[C@@H](C)N(C)C[C@@H]1C
0.8	CCNC(=O)C[C@H]1CC[C@@H]2[C@H](COc3ccc(NC(=O)Nc4ccc(C)cc4)cc3C(=O)N2C)O1

Going on with the list.
MLL AF4-AF9 inh	SMILES
-0.2	C[C@@H]1CN([C@H](C)CO)C(=O)Cc2cc(NC(=O)C3CCCCC3)ccc2O[C@H]1CN(C)Cc1ccc2c(c1)OCO2
0.9	C[C@H]1CCCCO[C@H](CN(C)S(=O)(=O)c2ccc(F)cc2)[C@@H](C)CN([C@@H](C)CO)C(=O)c2cc(NS(C)(=O)=O)ccc2O1
0.8	COc1ccccc1CCNC(=O)c1c(N)[nH]c(C(=O)c2ccccc2)c1-c1ccc(Br)cc1
1.4	COc1ccc2c3c([nH]c2c1)[C@H](CO)N(C(=O)c1cccnc1)CC31CCN(Cc2cccnc2)CC1
1.6	CCCNC(=O)Nc1ccc2c(c1)C(=O)N(C)C[C@H](OC)[C@H](C)CN(C(=O)C1CC1)[C@@H](C)CO2
1.9	COC(=O)c1ccc(COc2cccn3c(N(C)C(=O)CCC4CCCC4)c(C)nc23)cc1
-2.7	COc1ccc(S(=O)(=O)Nc2ccc3c(c2)C(=O)N([C@H](C)CO)C[C@H](C)[C@H](CN(C)CC2CC2)O3)cc1
-4.7	CC1(C(=O)NS(=O)(=O)c2cccc(OC(F)F)c2)CCN1C(=O)c1ccccc1 (stereo not given)
0.1	CS(=O)(=O)N1[C@@H]2Cn3c(cccc3=O)[C@H]1[C@@H](C(=O)NCc1ccccc1)[C@@H]2CO
-9.7	C[C@@H]1CN([C@H](C)CO)C(=O)c2cc(C#Cc3ccncc3)cnc2O[C@@H]1CN(C)C(=O)CN(C)C
2.7&-3.0	CCCNC(=O)N1[C@@H]2CNC[C@H]1C2c1ccc(-c2cccc(C#N)c2)cc1 (stereo not given in full)
-3.4	C[C@@H]1CCCCO[C@H](CN(C)C(=O)Nc2ccc(F)cc2)[C@@H](C)CN([C@H](C)CO)C(=O)c2cc(NC(=O)c3ccncc3)ccc2O1
0.1	COc1ccc(NC(=O)N(C)C[C@H]2OCCCC[C@H](C)Oc3ccc(NC(=O)C4CCCCC4)cc3C(=O)N([C@@H](C)CO)C[C@H]2C)cc1
1.5	O=C(Nc1cccc2cccnc12)c1ccc2sc([C@@H]3O[C@H](CO)[C@H](O)[C@H](O)[C@H]3O)nc2c1
11.6	O=C(c1cccnc1)N1CC(=O)N2[C@H](CO)[C@@H](c3ccc(/C=C/c4ccccc4)cc3)[C@@H]2C1
3.9	Cc1ccc(-c2ccc3c(c2)O[C@@H](CN(C)C(=O)Nc2ccc(F)cc2)[C@H](C)CN([C@H](C)CO)S3(=O)=O)cc1
0.1	Clc1cccc(Cc2c(-c3ccccc3)nc3ccc(Br)cn23)c1
-3.9	CC(C)[C@@H](C)NC(=O)N(C)C[C@@H]1OCc2ccccc2-c2ccccc2C(=O)N([C@@H](C)CO)C[C@@H]1C
0.8	C[C@@H]1CN([C@@H](C)CO)C(=O)c2cc(NC(=O)CCCN(C)C)ccc2O[C@@H]1CN(C)S(=O)(=O)c1cccs1
5.6	O=C(c1ccc(F)cc1)N1CCCCN2[C@@H](CO)[C@@H](c3ccc(-c4ccc(F)cc4)cc3)[C@@H]2C1
0.2	NC(CCC(=O)NC(CS)C(=O)NCC(=O)O)C(=O)O (stereo not given)
-5.4	COCC(=O)N[C@H]1C=C[C@H](CC(=O)N2CCCCC2)O[C@@H]1CO
0.8	Cn1cnc(S(=O)(=O)N[C@@H]2CC[C@H](CC(=O)NCC3CCCCC3)O[C@H]2CO)c1
-1.2	CN1C(=O)c2cc(NC(=O)c3ccc4c(c3)OCO4)ccc2OC[C@H]2O[C@@H](CC(=O)O)CC[C@H]21
0.6	CCS(=O)(=O)Nc1ccc2c(c1)C(=O)N(C)[C@H]1CC[C@@H](CC(=O)Nc3ccccc3)O[C@@H]1CO2
-2.9	Cc1ccc(S(=O)(=O)N(C)C[C@@H]2Oc3c(NC(=O)c4ccncc4)cccc3C(=O)N([C@H](C)CO)C[C@H]2C)cc1
-8.0	C[C@@H]1CN([C@@H](C)CO)C(=O)c2cc(NS(=O)(=O)c3cn(C)cn3)ccc2O[C@@H](C)CCCCO[C@@H]1CN(C)C(=O)Nc1ccc2c(c1)OCO2
-3.1	Cc1ccc(S(=O)(=O)NC[C@H]2CC[C@H]3[C@H](CN3Cc3ccccc3C(=O)O)O2)cc1
-5.5	COc1ccc2c3c([nH]c2c1)[C@@H](CO)N(Cc1cccc(F)c1)CC31CCN(C(C)=O)CC1
-1.3	COc1cccc(CNC(=O)C[C@@H]2C=C[C@@H](NC(=O)C3CC3)[C@H](CO)O2)c1

Next section
MLL AF4-AF9 inh	SMILES
-3.0	COCCCNC(=O)C[C@@H]1C[C@@]2(C(=O)OC)CCCCC=C2N(CCc2ccc(OC)c(OC)c2)C1=O
7.7	CO[C@H]1CN(C)C(=O)c2cc(NC(=O)Nc3ccc(Cl)cc3)ccc2OC[C@H](C)N(C)C[C@@H]1C
-3.4	C[C@@H]1CN([C@@H](C)CO)C(=O)c2cccc(NC(=O)c3cnccn3)c2O[C@H]1CN(C)S(C)(=O)=O
-3.1	C[C@H](CO)N1C[C@H](C)[C@@H](CN(C)C(=O)Nc2ccc(F)cc2)Oc2c(NC(=O)C3CCOCC3)cccc2C1=O
5.3	O=[N+]([O-])c1cc(S(=O)(=O)Oc2ccccc2)ccc1Cl
-0.7	O=C(Cc1ccccn1)NCC[C@H]1CC[C@H](NS(=O)(=O)c2ccc(F)cc2)[C@@H](CO)O1
4.6	Cc1cc(C(=O)Nc2cccc3c2O[C@@H](CN(C)Cc2ccc(C(=O)Nc4ccccc4N)cc2)[C@H](C)CN([C@@H](C)CO)C3=O)n(C)n1
-0.5	CC=Cc1ccc2n(c1=O)C[C@H]1[C@H](CO)[C@@H](C(=O)NCc3ccc(F)cc3)[C@@H]2N1S(C)(=O)=O (mixture of isomers)
-4.1	COc1ccc(NC(=O)N2CCC3(CC2)CN(C(=O)CN2CCOCC2)[C@@H](CO)c2[nH]c4cc(OC)ccc4c23)cc1
3.2	C[C@@H]1CN([C@H](C)CO)C(=O)Cc2cc(NC(=O)Cc3cn(C)c4ccccc34)ccc2O[C@@H]1CN(C)Cc1ccccc1
-1.8	C[C@H]1CN([C@@H](C)CO)S(=O)(=O)c2ccc(C3=CCCC3)cc2O[C@H]1CN(C)Cc1ccccn1
-1.5	C[C@@H]1CN([C@H](C)CO)C(=O)Cc2cc(NC(=O)Nc3ccc(F)cc3)ccc2O[C@H]1CN(C)C(=O)Nc1cccc2ccccc12
10.3	C[C@@H]1CN([C@@H](C)CO)C(=O)c2cc(/C=C/c3ccccc3)cnc2O[C@@H]1CN(C)Cc1ccccc1
-0.9	C[C@H](CO)N1C[C@H](C)[C@H](CN(C)C(=O)Nc2ccccc2C(F)(F)F)OCc2cnnn2CCCC1=O
-0.1	CC(C)NC(=O)N(C)C[C@H]1Oc2ccc(NC(=O)Nc3cccc4ccccc34)cc2CC(=O)N([C@H](C)CO)C[C@H]1C
-0.4	C[C@H]1CN([C@@H](C)CO)C(=O)c2cc(C#Cc3ccc(F)cc3)cnc2O[C@@H]1CN(C)C(=O)c1ccccc1F
u	CO[C@H]1CN(C)C(=O)c2cc(NC(C)=O)ccc2OC[C@@H](C)N(C(=O)Cc2ccccn2)C[C@H]1C
-6.0	C[N+](C)(CCOc1ccccc1)Cc1ccccc1
4.5	CC(C)(C)[S@](=O)N1Cc2cc(C(=O)N[C@@H]3CCN(Cc4ccccc4)C3)nc(-c3cccc(-c4ccncc4)c3)c2[C@@H]1CCO
7.2	C[C@H]1CCCCO[C@H](CN(C)CC2CCCCC2)[C@@H](C)CN([C@@H](C)CO)C(=O)c2cc(NC(=O)Nc3ccccc3)ccc2O1
-0.2	CN(C)CCCNC(=O)[C@H]1[C@H](CO)[C@H]2Cn3c(ccc(-c4ccc(F)cc4)c3=O)[C@@H]1N2C
0.9	COc1ccccc1NC(=O)N[C@H]1CC[C@H](CCNS(=O)(=O)c2ccc(Cl)cc2)O[C@@H]1CO
0.1	Cc1ccc(S(=O)(=O)Nc2ccc3c(c2)C(=O)N([C@@H](C)CO)C[C@@H](C)[C@H](CN(C)C)OCCCC[C@@H](C)O3)cc1
-0.8	Cc1ccc(S(=O)(=O)Nc2ccc3c(c2)C(=O)N([C@@H](C)CO)C[C@H](C)[C@H](CN(C)C(=O)Nc2ccc(C(F)(F)F)cc2)O3)cc1
-0.7	Cc1cc(Cl)ccc1OCC(=O)OCC(=O)NCCNC(=O)COC(=O)COc1ccc(Cl)cc1C

Some of the entries so far, as comma-separated lines.
compound,MLL AF4-AF9 inh
C[C@@H]1CN([C@H](C)CO)C(=O)Cc2cc(NC(=O)Cc3cn(C)c4ccccc34)ccc2O[C@@H]1CN(C)Cc1ccccc1,3.2
C[C@H]1CN([C@@H](C)CO)S(=O)(=O)c2ccc(C3=CCCC3)cc2O[C@H]1CN(C)Cc1ccccn1,-1.8

Seven entries out of the list above, sorted by the value under MLL AF4-AF9 inh, low to high:
| compound | MLL AF4-AF9 inh |
| --- | --- |
| C[C@@H]1CN([C@@H](C)CO)C(=O)c2cccc(NC(=O)c3cnccn3)c2O[C@H]1CN(C)S(C)(=O)=O | -3.4 |
| C[C@H](CO)N1C[C@H](C)[C@@H](CN(C)C(=O)Nc2ccc(F)cc2)Oc2c(NC(=O)C3CCOCC3)cccc2C1=O | -3.1 |
| C[C@H]1CN([C@@H](C)CO)S(=O)(=O)c2ccc(C3=CCCC3)cc2O[C@H]1CN(C)Cc1ccccn1 | -1.8 |
| CC=Cc1ccc2n(c1=O)C[C@H]1[C@H](CO)[C@@H](C(=O)NCc3ccc(F)cc3)[C@@H]2N1S(C)(=O)=O (mixture of isomers) | -0.5 |
| C[C@H]1CN([C@@H](C)CO)C(=O)c2cc(C#Cc3ccc(F)cc3)cnc2O[C@@H]1CN(C)C(=O)c1ccccc1F | -0.4 |
| CC(C)(C)[S@](=O)N1Cc2cc(C(=O)N[C@@H]3CCN(Cc4ccccc4)C3)nc(-c3cccc(-c4ccncc4)c3)c2[C@@H]1CCO | 4.5 |
| CO[C@H]1CN(C)C(=O)c2cc(NC(=O)Nc3ccc(Cl)cc3)ccc2OC[C@H](C)N(C)C[C@@H]1C | 7.7 |
